Bioassay records (PubChem)
KCNQ2 inh = KCNQ2 channel blockers in CHO-K1 cells – cell-based, FluxOR thallium flux, B-score, primary screen (AID 2156); 20 min; stronger effect = lower value; only compounds with negative scores are shown here; some inactives read as strong as hits; B-score at 10 µM; 310,000 tested, 1.1% active;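 active means fluorescence ratio B-score at most minus 3 library SDs, with starting brightness B-score within 2 library SDs, cut at about -5.5 in these data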
Target sequence (O88943 whole entry, looked up): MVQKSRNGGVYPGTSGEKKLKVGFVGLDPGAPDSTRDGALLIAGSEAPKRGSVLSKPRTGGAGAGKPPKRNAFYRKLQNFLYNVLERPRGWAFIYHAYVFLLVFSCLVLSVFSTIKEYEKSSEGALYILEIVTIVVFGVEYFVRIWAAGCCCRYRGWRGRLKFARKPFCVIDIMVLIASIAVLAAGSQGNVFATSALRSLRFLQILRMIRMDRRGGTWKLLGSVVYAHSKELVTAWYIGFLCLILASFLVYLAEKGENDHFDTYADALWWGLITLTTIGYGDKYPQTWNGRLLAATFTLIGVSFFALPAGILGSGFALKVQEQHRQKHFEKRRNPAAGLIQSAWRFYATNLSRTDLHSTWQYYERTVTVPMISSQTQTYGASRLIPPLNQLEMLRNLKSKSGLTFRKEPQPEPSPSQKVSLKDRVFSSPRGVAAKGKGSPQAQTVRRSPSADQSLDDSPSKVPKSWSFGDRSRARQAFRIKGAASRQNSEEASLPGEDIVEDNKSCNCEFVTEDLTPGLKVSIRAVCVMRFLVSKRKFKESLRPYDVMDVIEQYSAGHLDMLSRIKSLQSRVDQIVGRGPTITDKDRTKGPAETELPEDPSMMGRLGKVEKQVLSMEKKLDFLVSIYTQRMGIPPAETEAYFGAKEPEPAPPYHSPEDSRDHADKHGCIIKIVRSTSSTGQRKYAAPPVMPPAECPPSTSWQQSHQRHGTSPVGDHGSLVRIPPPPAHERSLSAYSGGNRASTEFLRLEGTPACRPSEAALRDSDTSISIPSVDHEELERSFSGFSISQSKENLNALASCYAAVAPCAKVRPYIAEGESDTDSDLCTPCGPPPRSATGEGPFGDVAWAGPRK
KCNQ2 inh baseline = further read-out of KCNQ2 inh, marked with its call; B-score; measured here: initial fluorescence intensity artifact check;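 brightness before thallium and not channel activity; 0 = typical well and far values either way flag optical interference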
Active calls of the source: *; i = inactive.

KCNQ2 inh baseline,KCNQ2 inh,SMILES
-0.09,i,CCOC(=O)C1C(c2ccccc2)NC(=S)NC1(C)O (stereo not given)
-1.5,i,Cc1ccc(-n2nc3c(=O)n(C(C)C(=O)NCCCc4ccccc4)nc(C)c3c2C)cc1 (stereo not given)
0.61,i,Nn1c(Cc2cccc3ccccc23)nnc1SCn1nnc2ccccc2c1=O
-0.43,i,NC(=O)c1cccnc1Nc1cccc([N+](=O)[O-])c1
-1.5,i,Cc1cccc(C(=O)OCC(=O)N(C)c2ccccc2)c1C
0.7,i,CN(CC(=O)Nc1ccc(F)c(F)c1F)C(=O)CN1C(=O)NC2(CCCC2)C1=O
0.05,i,CN(C)c1ccc(C(=O)OCC(=O)N2CCOCC2)cc1
1.6,i,CCOC(=O)c1c(NC(=O)CN2CCCc3ccccc32)sc(C(C)=O)c1C
-0.6,i,CCOC(=O)C1=C(C)NC(C)=C(C(=O)OCC)C1c1ccc(Br)o1
-1.1,i,CCOC(=O)c1cc2c(=O)n3ccccc3nc2n(CCOC)c1=NC(=O)c1c(-c2c(F)cccc2Cl)noc1C
-0.73,i,COc1ccccc1C(=O)Nc1ccc(S(=O)(=O)NC2=NCCCCC2)cc1
-0.87*,-6.7*,O=C(CSc1ncnc2c1cnn2CCc1ccccc1)Nc1cccc(C(F)(F)F)c1
0.99,i,CC(=O)NS(=O)(=O)c1ccc(NC(=O)/C=C/c2ccccc2Cl)cc1
-0.08,i,Cc1ccc(S(=O)(=O)N2CCCC(C(=O)N(Cc3cccs3)C3CC3)C2)cc1 (stereo not given)
1.9,i,CCn1c(C)[n+](Cc2ccccc2)c2ccc(Cl)cc21
-0.16,i,O=C(CCNS(=O)(=O)c1ccccc1C(F)(F)F)N1CCN(C(c2ccccc2)c2ccccc2)CC1
-0.3,i,O=C(O)c1cc(=O)cc(C(=O)O)[nH]1
-2.3,i,Cc1nn(CCCC(=O)Nc2sc3c(c2C#N)CCC3)c(C)c1[N+](=O)[O-]
-1.5,i,CN1CCC(=NNC(=O)c2ccc(N(Cc3ccc(Cl)cc3)S(C)(=O)=O)cc2)CC1
-0.92,i,C/C(=N\NC(=O)c1nn(C)c(C)c1Br)c1ccc(NC(=O)c2ccccc2F)cc1

Shown with two lines to a compound: 14 of the compounds above
Values in the order – KCNQ2 inh baseline | KCNQ2 inh
CCOC(=O)C1C(c2ccccc2)NC(=S)NC1(C)O (stereo not given)
  -0.09 | i
Cc1ccc(-n2nc3c(=O)n(C(C)C(=O)NCCCc4ccccc4)nc(C)c3c2C)cc1 (stereo not given)
  -1.5 | i
Nn1c(Cc2cccc3ccccc23)nnc1SCn1nnc2ccccc2c1=O
  0.61 | i
NC(=O)c1cccnc1Nc1cccc([N+](=O)[O-])c1
  -0.43 | i
Cc1cccc(C(=O)OCC(=O)N(C)c2ccccc2)c1C
  -1.5 | i
CN(CC(=O)Nc1ccc(F)c(F)c1F)C(=O)CN1C(=O)NC2(CCCC2)C1=O
  0.7 | i
CN(C)c1ccc(C(=O)OCC(=O)N2CCOCC2)cc1
  0.05 | i
CCOC(=O)c1c(NC(=O)CN2CCCc3ccccc32)sc(C(C)=O)c1C
  1.6 | i
CCOC(=O)C1=C(C)NC(C)=C(C(=O)OCC)C1c1ccc(Br)o1
  -0.6 | i
CCOC(=O)c1cc2c(=O)n3ccccc3nc2n(CCOC)c1=NC(=O)c1c(-c2c(F)cccc2Cl)noc1C
  -1.1 | i
COc1ccccc1C(=O)Nc1ccc(S(=O)(=O)NC2=NCCCCC2)cc1
  -0.73 | i
O=C(CSc1ncnc2c1cnn2CCc1ccccc1)Nc1cccc(C(F)(F)F)c1
  -0.87* | -6.7*
CC(=O)NS(=O)(=O)c1ccc(NC(=O)/C=C/c2ccccc2Cl)cc1
  0.99 | i
Cc1ccc(S(=O)(=O)N2CCCC(C(=O)N(Cc3cccs3)C3CC3)C2)cc1 (stereo not given)
  -0.08 | i

(more compounds)
KCNQ2 inh baseline,KCNQ2 inh,SMILES
0.51,i,COCCCn1nnnc1SCC(=O)N1c2ccccc2CC1C (stereo not given)
0.96,i,c1ccc(-c2nc3ccccn3c2-c2ccccc2)cc1
-0.37,i,CCOC(=O)CC1C(=O)NCCN1S(=O)(=O)c1ccc(NC(C)=O)cc1 (stereo not given)
0.74,i,O=C1ON=C(c2ccccc2)/C1=C/c1ccc(O)cc1
0.01,i,CCn1nc(C)c(Br)c1-c1nc(CS(=O)(=O)c2ccc(F)cc2)no1
-1.2,i,CCOc1ccc(N2CC(C(=O)Nc3ccccc3C(=O)N3CCOCC3)CC2=O)cc1 (stereo not given)
-3.3,i,Cc1ccc(NS(=O)(=O)c2ccc(-n3cccn3)cc2)c(C)c1
-1.4,i,C=CCN(C(=O)Nc1ccc2oc(C)nc2c1)c1ccccc1
-1.1,i,COC(=O)CSC1=C(C#N)C(c2ccc(Cl)cc2)C(C(=O)OC)C(=O)N1 (stereo not given)
1.4,i,CC(C)Cn1c(CN2CCN(C)C(CCO)C2)nc2ccccc21 (stereo not given)
-0.51,i,COc1ccc(N2CCN(Cc3cc(=O)oc4ccc(C)cc34)CC2)cc1
-0.63,i,Cc1ccc(SCC(=O)NC2CCS(=O)(=O)C2)cc1 (stereo not given)
0.91,i,CN(C)CC#CCOC(c1ccccc1)c1ccccc1
-0.12,i,CN(C(=S)Nc1ccc(Oc2ccccc2)cc1)C1CCCCC1
3.4,i,Cc1ccc(C(=O)NNC(=O)CSc2nc(N)cc(N)n2)cc1
0.11,i,CCOC(=O)C1CCN(C(=O)c2cc(S(=O)(=O)N3CCCCC3)ccc2C)CC1
-0.73,i,CN(C)CCCN(C(=O)c1ccc(N2C(=O)CCC2=O)cc1)c1nc2c(F)cccc2s1
1.5,i,CCOc1ccc(N(CC(=O)NCC2CCCO2)S(=O)(=O)c2ccc(C)cc2)cc1 (stereo not given)
-0.49,i,CCN(c1ccccc1)S(=O)(=O)c1cc2c(cc1C)n(C)c(=O)c(=O)n2C
1.6,i,O=C(Nc1cccc2ncccc12)c1ccc(Br)c([N+](=O)[O-])c1
0.57,i,CCOC(=O)N1CCN(C(=O)CSc2nnc(Cc3ccccc3)o2)CC1
-0.34,i,COc1ccc(N(CC(=O)NCc2ccco2)S(=O)(=O)c2ccc(C)cc2)cc1OC
3.1,i,COc1ccc(CC(=O)N(C)C2CCCCC2)cc1S(=O)(=O)N1CCOCC1
0.03,i,CC(C)(C)NC(=O)c1ccc2c3c(cccc13)CC2
-0.82,i,O=C(OCC(=O)N1CCc2ccccc21)c1c2c(nc3ccccc13)CCCCC2
-1.2,i,O=C(c1cccc(Cl)c1)N1CCC(=O)N(C(COCc2cccc(Cl)c2)Cc2ccccc2)CC1 (stereo not given)
-0.02,i,COc1ccc2c(c1)CCc1c(C(=O)N3CCCc4ccccc43)noc1-2
2.3,i,O=C(CC1S/C(=N/N=C2CCCCCC2)NC1=O)Nc1ccccc1F (stereo not given)
0.68,i,O=C(COC(=O)c1ccco1)NCc1ccc(Cl)cc1
1.6,i,Cc1ccc(-c2cc(-c3nnc(SCC(=O)NC(C)C(C)C)n3N)c3ccccc3n2)cc1 (stereo not given)
-1.5,i,Cn1c(=O)c2c(nc(NCC3CCCO3)n2Cc2cccc(Br)c2)n(C)c1=O (stereo not given)
1.3,i,COc1ccc(N2COC3c4cccc5cccc(c45)C32)cc1 (stereo not given)
-0.47,i,COc1ccc(OC(=O)c2cc(S(=O)(=O)N3CCCC3)ccc2Cl)cc1
0.73,i,COc1cc(C(=O)N/N=C/c2ccc(OC(=O)N3CCOCC3)cc2)cc(OC)c1OC
-1.3,i,Brc1cccc(-c2nnc3sc(CNCc4ccco4)cn23)c1
-0.79,i,Cc1ccc2c(C(=O)CN3CCN(C(=O)c4ccco4)CC3)c(C)[nH]c2c1
-0.75,i,Cc1cc(NC(=O)CSc2nc(C(C)C)nc3sc(C)c(C)c23)no1
21,i,CCN1/C(=C\C=C(C(C)=O)C(C)=O)Sc2ccccc21
-1.9,i,CN(C(=O)/C=C/c1cnc2ccccc2c1)C1CCCCC1
-1.1,i,CSc1c(C#N)c(N)nc2sc(C(=O)c3ccccc3)c(N)c12
-0.65,i,CC(C)N(C(=O)CSc1nnc(CNc2ccc(F)cc2)o1)C(C)C
0.49,i,COc1ccc(-c2c(-c3ccc(OCC(=O)NN)cc3O)n[nH]c2C(F)(F)F)cc1
1.4,i,COc1cc(CNC2CCCC2)cc(Br)c1OCC(=O)Nc1ccccc1C
-0.12,i,COc1ccc(C(=O)O)cc1S(=O)(=O)NC(C)(C)C
2.1,i,COc1cccc(-c2nnc(SCC(=O)Nc3ccc4c(c3)OCCO4)n2Cc2ccco2)c1
-1.1,i,Cc1ccc(S(=O)(=O)N2CCN(C(=O)CSc3cc(C)ccc3C)CC2)c(C)c1
0.88,i,Cc1sc2ncnc(NCCc3ccc(S(N)(=O)=O)cc3)c2c1C
-0.08,i,Cc1cc(C(=O)NCCc2ccc(Cl)cc2)c2ccccc2n1
-0.29,i,CC(C)(C)C1=CC=C(C(C)(C)C)C(=O)C1=O
-1.3,i,CN1CCN(NC(=O)c2cc(-c3ccc(Cl)s3)nc3ccccc23)CC1
-1.3,i,CCCCNc1c(-c2cccc(SC3CCCCC3)c2)nc2ccc(Cl)cn12
-1.6,i,CCOC(=O)C1=C(CN2CCN(C(=O)c3ccco3)CC2)NC(=O)NC1c1ccc(C)cc1 (stereo not given)
-0.57,i,COc1ccc(NC(=S)NCCCCCC(=O)C[N+](=O)[O-])cc1
0.53,i,COC(=O)C[C@H]1c2cc(C(F)(F)F)ccc2S(=O)(=O)N1C1CCCCC1
1,i,O=C(Nc1nc(-c2ccc(F)cc2)cs1)c1ccc(N2C(=O)CCC2=O)cc1
-1.6,i,Nc1c(C(=O)Nc2cccc(Cl)c2Cl)sc2nc(-c3cccnc3)ccc12
-0.01,i,CCN(CC)S(=O)(=O)c1ccc(C(=O)OCC(=O)Nc2ccc(-c3nc4ccc(C)cc4s3)cc2)cc1
-0.01,i,COc1nc(NC2CCCCC2)nc(N2CCCCCC2)n1
0.45,i,O=C(NC(O)C(=O)c1cccs1)c1cccnc1 (stereo not given)
-0.85,i,CCC[C@@H]1CCCO[C@@](C(=O)NCc2ccccn2)(C(F)(F)F)C1

Other results follow:
KCNQ2 inh baseline,KCNQ2 inh,SMILES
0.32,i,COCCN(CC1CCCN(C2Cc3ccccc3C2)C1)C(=O)c1cccc(C)c1 (stereo not given)
0.37,i,COc1ccc(CCn2nnnc2CN2CCN(C(=O)c3ccco3)CC2)cc1OC
1.7,i,Nc1c(C(=O)NC2CCCC2)c2nc3ccccc3nc2n1/N=C/c1ccco1
1.3,i,O=C(C1CCCN(Cc2ccc3c(c2)OCO3)C1)N1CCCC1 (stereo not given)
-1.7,i,O=S(=O)(NCC(c1ccco1)N1CCc2ccccc21)c1ccccc1 (stereo not given)
1.4,i,COc1ccccc1CCNC(=O)C(=O)NCC1OCCN1S(=O)(=O)c1ccccc1 (stereo not given)
-0.25,i,CC(=O)c1cccc(S(=O)(=O)N2CCN(c3nc4cc(C)cc(C)c4cc3C#N)CC2)c1
0.58,i,CCC(C(=O)NC(C)(C)C)N(Cc1cccs1)C(=O)CNS(=O)(=O)c1ccccc1 (stereo not given)
-0.22,i,O=C(NCC1CCCO1)C(c1ccc(F)cc1)N(Cc1ccc(F)cc1)C(=O)Cn1nnc(-c2cccs2)n1 (stereo not given)
0.17,i,CC(=O)Nc1ccc2c(c1)N(C(=O)CN(C)C)c1ccccc1CC2
-2,i,CCCc1noc2c1C(c1ccoc1)C(C#N)=C(N)N2 (stereo not given)
-1.8,i,Cc1c(Cl)cccc1NC(=S)NCCc1ccc(F)cc1
-0.01,i,COC(=O)Cc1c(O)ccn(Cc2cccc3ccccc23)c1=O
-1.3,i,Nc1ccnc(C(F)(F)F)c1C(=O)c1ccccc1
-0.18,i,CC(NC(=O)c1ccc(F)cc1)c1nc2ccccc2n1Cc1ccccc1F (stereo not given)
0.84,i,Cc1cc(NC2C3CC4CC(C3)CC2C4)n2nnnc2n1 (stereo not given)
1.6,i,CCn1c(SCC(=O)Nc2ccc3[nH]c(=O)[nH]c3c2)nnc1-c1ccccc1
-0.43,i,Cc1cccc(NC(=O)CSc2nc(C)c(Cc3ccccc3)c(=O)[nH]2)c1C
1.8,i,O=C(NNc1ccccc1)C(CCO)C(=O)NNc1ccccc1
1.4,i,CCOC(=O)C1CCN(C(c2ccccn2)c2c(C)[nH]c3ccccc23)CC1 (stereo not given)
-2.2,i,Cc1ccc(S(=O)(=O)n2nc(C)c(C#N)c2N)cc1
-0.42,i,CCOc1ccc(C(=O)CCC(=O)Nc2ccccc2C)cc1
0.07,i,O=C(CN1C(=O)NC2(CCCc3ccccc32)C1=O)NCc1ccc(Cl)cc1Cl (stereo not given)
0.79,i,CC(C(=O)N(C)Cc1ccccc1)N1CCN(C/C=C/c2ccccc2)CC1 (stereo not given)
-0.86,i,CCCCn1c(N)c(N(CCC(C)C)C(=O)C2CC(=O)N(CCc3ccc(OC)c(OC)c3)C2)c(=O)[nH]c1=O (stereo not given)
-2,i,CN(C)CCCN(C(=O)C1=COCCO1)c1nc2ccc(Br)cc2s1
-0.03,i,COC(=O)c1sc(N)c(C(=O)OC)c1CSc1nnc(-c2ccccc2Cl)n1C
0.54*,-6.2*,O=C(Sc1cccc2cccnc12)c1ccccc1Br
0.84,i,Cc1nn(-c2ccccc2)c(C)c1NC(=O)COc1ccc([N+](=O)[O-])cc1
-1.5,i,C=CCN(c1ccccc1)S(=O)(=O)c1cccc(C(=O)NC2CCC(O)CC2)c1 (stereo not given)
-0.18,i,CCCCSCCCNC(=O)c1ccc2c(c1)N(CC)C(=O)c1ccccc1S2=O (stereo not given)
-2.4,i,CCOc1ccc2c(C)nc(NC3=NC(C)(C)C=C(C)N3)nc2c1

Only part of the results is shown, so the mix of outcomes need not match the whole.
